High-throughput results: PubChem BioAssay, several laboratories
AF4-AF9 inh – inhibitors of human MLL-AF4/AF9 interaction; P42568; AlphaScreen, biotin-AF4 peptide binding to FLAG-AF9; inhibition, % at 10 µM; hit rate 0.47% among 350,000;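 active = every replicate reaching a set inhibition limit, whatever the replicate mean, cut at about 25% in these data; inconclusive = mean inhibition reaches that limit but some replicates miss it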;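 note: 0% = plate neutral control median and 100% = total signal loss; the record names both 10 and 1 µM as test concentration; the first replicate is given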
Target sequence (P42568 whole entry, looked up): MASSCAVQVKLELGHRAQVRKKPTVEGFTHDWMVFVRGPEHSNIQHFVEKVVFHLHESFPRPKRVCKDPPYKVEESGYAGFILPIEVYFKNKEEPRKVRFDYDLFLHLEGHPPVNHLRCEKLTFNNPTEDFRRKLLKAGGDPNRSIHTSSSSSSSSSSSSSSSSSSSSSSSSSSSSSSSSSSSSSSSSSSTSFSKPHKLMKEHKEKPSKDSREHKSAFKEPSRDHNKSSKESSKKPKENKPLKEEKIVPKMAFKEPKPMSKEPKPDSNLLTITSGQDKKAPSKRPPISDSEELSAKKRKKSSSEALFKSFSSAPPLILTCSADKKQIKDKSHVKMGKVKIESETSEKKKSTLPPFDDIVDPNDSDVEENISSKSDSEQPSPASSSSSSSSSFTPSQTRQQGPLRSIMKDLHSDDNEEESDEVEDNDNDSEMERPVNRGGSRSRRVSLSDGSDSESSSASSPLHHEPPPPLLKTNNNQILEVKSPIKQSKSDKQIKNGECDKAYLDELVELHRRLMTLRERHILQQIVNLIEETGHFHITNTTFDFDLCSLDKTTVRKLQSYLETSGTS
E coli growth – inhibitors of Escherichia coli growth; hit rate 0.21% among 330,000; OD600 absorbance (concentration not given with the values); OD600, 23 h; stronger effect = lower value; AID 1053175;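 active = OD600 absorbance below the run mean of sample wells minus 3.6 SD, in any replicate, cut at about 0.56 in these data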;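 note: stock transfer was 300 nL into about 60 µL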
Ecoli rRNA inh – selective bacterial rRNA inhibition in E. coli. E. coli WT GFP vs humanized-ribosome RFP mutants, fluorescence, 24 h; stronger effect = lower value; DMSO median 0, no signal -100. GFP signal change (wild-type ribosome), % (test concentration not listed). hit rate 1.6% among 350,000. AID 720706;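 active = significant combined selectivity score with lowered wild-type GFP, culture density cut under 30%, mutant RFP and density less affected; inactive = any of these conditions unmet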; note: one replicate is shown; some compounds called inactive have numbers as strong as hits
FGF22 binding – binders of recombinant human FGF22 by thermal shift | Q9HCT0 | SYPRO orange fluorescence; percent of sucrose octasulfate shift, DMSO zero | calls only at 9.99 µM | hit rate 1.5% among 340,000;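 active = melting point raised past a set limit in the mean and every replicate; inconclusive = no clear call; three in four hits are not shown here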
Target sequence (Q9HCT0 whole entry, looked up): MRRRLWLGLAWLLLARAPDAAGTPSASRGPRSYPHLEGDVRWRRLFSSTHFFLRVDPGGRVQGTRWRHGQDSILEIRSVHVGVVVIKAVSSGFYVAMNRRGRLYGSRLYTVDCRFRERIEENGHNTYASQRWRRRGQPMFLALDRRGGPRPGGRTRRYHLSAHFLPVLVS
HNF4A DNA FP – change in binding of human HNF4 alpha to DNA | HNF4a-FITC DNA binding, fluorescence polarization, 1 h | activity change, % at 10 µM | hit rate 0.3% among 360,000 | AID 1224865; in the data active = activity change above about 30%, passing the limit was not always enough;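 note: controls were the assay level and a saturating level of protein; the project sought stronger binding though the title names inhibitors; some compounds called inactive have numbers as strong as hits; positive values seem to mean higher polarization but the record does not say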
Vif A3G – HIV-1 Vif–A3G interaction blockers – biochemical, TR-FRET, GST-Vif 1-94, biotin-A3G peptide, dose response retest, primary screen (AID 1117319) | inhibition, %; hits with a dose series show IC50 in µM | hit rate 0.57% among 260,000 | TR-FRET GST-Vif / biotin-A3G peptide binding; higher % means a stronger effect; test concentration not given here; strong numbers were not always called active;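 active = above the screen mean plus three standard deviations and confirmed in dose response; inconclusive = results disagree or hit not tested in dose response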;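 note: Vif residues 1-94 fused to GST binding biotinylated APOBEC3G peptide 110-148; 0% = full assay without inhibitor and 100% = GST in place of GST-Vif; retest series ran down from 100 µM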
ALR H2O2 inh – inhibitors of human sulfhydryl oxidase ALR | purified ALR, DTT oxidation, H2O2 HRP-luminol luminescence | inhibition, % (no concentration beside the values) | hit rate 3.8% among 290,000 | AID 485317;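 active = mean and each replicate at 75% or more; inconclusive = only one of the two met; inactive = neither met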;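 note: stock transfer was 7.5 nL into about 7.5 µL; 0% = neutral wells and 100% = wells with inactivated enzyme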
Target sequence (P55789 whole entry, looked up): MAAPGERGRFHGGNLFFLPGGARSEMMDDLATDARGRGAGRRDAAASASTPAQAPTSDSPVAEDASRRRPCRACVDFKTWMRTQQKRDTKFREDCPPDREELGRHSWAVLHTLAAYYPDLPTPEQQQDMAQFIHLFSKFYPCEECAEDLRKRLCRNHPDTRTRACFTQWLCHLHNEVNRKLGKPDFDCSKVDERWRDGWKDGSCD
Ecoli rRNA inh OD600 – second read-out of Ecoli rRNA inh, no call of its own (marks repeat the call); OD600 change, %; measured here: OD600 growth;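 optical density of the mix in the first replicate; 0 = DMSO median and -100 = no signal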
Ecoli rRNA inh RFP – further read-out of Ecoli rRNA inh, marked with its call; RFP signal change, %; measured here: RFP humanized mutant strains;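 first replicate; 0 = DMSO median and -100 = no signal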
Active calls of the source: *; i = inactive; u = inconclusive; x = not tested or not shown. An excerpt (hit frequency here may not be typical).

nr	Compound	AF4-AF9 inh	E coli growth	Ecoli rRNA inh	Ecoli rRNA inh OD600	Ecoli rRNA inh RFP	FGF22 binding	HNF4A DNA FP	Vif A3G	ALR H2O2 inh
1	COc1c(/C=N/NS(=O)(=O)c2ccc(C)cc2)c(CCN(C)C(C)=O)cc2c1OCO2	1.2	x	-8	-1	-7.4	i	2.8	12%	x
2	C[C@@H]1CCCCO[C@H](CN(C)Cc2ccc(Cl)c(Cl)c2)[C@@H](C)CN([C@@H](C)CO)C(=O)c2cc(NC(=O)NC3CCCCC3)ccc2O1	1.1	x	3	4	1.9	i	x	x	x
3	CC(C)CC#Cc1ccc2c(c1)O[C@H](CN(C)C(=O)CN(C)C)[C@H](C)CN([C@H](C)CO)S2(=O)=O	7.2	x	2	-1	0.9	i	x	x	x
4	COc1cc(-c2cc(C(=O)Nc3ccc(N4CCOCC4)cc3)c3ccccc3n2)cc(OC)c1OC	u	0.64	1	-11	7.2	i	1.3	0%	-8
5	C[n+]1ccccc1COc1ccc(C(C)(C)C)cc1	9.8	0.66	10	8	8.9	i	-0.8	13%	-2
6	COc1ccc(Cl)cc1C(=O)NNC(=S)NC(=O)c1ccc(F)c(F)c1	x	0.69	x	x	x	x	2.1	-8%	x
7	COCc1cc(C)[nH]c(=O)c1C(=O)NC12CC3CC(CC(C3)C1)C2	0.1	0.72	9	6	0.0	i	2.3	-11%	13
8	C[C@@H]1CN([C@H](C)CO)C(=O)c2cc(-c3ccccc3)cnc2O[C@@H]1CN(C)C(=O)C1CCCCC1	-1.3	x	-3	5	-2.7	i	x	x	x
9	COc1ccc(C(=O)C(C)[n+]2ccc(-c3nnc4n3CCCCC4)cc2)cc1 (centres undefined)	-1.6	0.71	3	0	2.4	i	-0.3	29%	6
10	COC(=O)N/N=C/c1ccc(-c2ccc(C)c(Cl)c2)o1	-4.1	x	-2	6	-1.6	i	0.4	-2%	-1
11	C=CCNC(=O)/C(=C\c1ccc(Br)cc1)NC(=O)c1ccccc1OC	-0.6	0.7	0	0	-0.9	i	-2.9	-5%	x
12	Cn1ncc2c1NC(c1ccc(F)cc1)SCC2=O (centres undefined)	-4.6	x	2	-1	-4.9	i	1.5	-3%	x
13	O=C1c2ccccc2C(=O)c2c(/C=C/N3CCCCC3)ccnc21	6.9	x	24	-22	2.0	i	-12	x	x
14	CCOCCn1c(N2CCN(c3ccc(OC)cc3)CC2)nc2c1c(=O)n(C)c(=O)n2C	x	0.74	x	x	x	x	0.0	4%	91*
15	O=C(c1cccc(F)c1)N1CC(=O)N2[C@H](CO)[C@H](c3ccc(-c4ccccc4F)cc3)[C@H]2C1	1.4	x	-4	-6	-0.4	i	x	x	x

Next section
nr	Compound	AF4-AF9 inh	E coli growth	Ecoli rRNA inh	Ecoli rRNA inh OD600	Ecoli rRNA inh RFP	FGF22 binding	HNF4A DNA FP	Vif A3G	ALR H2O2 inh
16	Cc1onc(-c2ccccc2)c1C(=O)N1CCC(C)(C(=O)O)C1 (centres undefined)	-0.3	x	4	7	-2.4	i	0.5	x	x
17	Cc1ccc(C(=O)OCC(=O)Nc2sc3c(c2C#N)CCC3)cc1	x	0.72	x	x	x	x	-1.2	22%	0
18	c1cc(-c2nnn(CCOCCn3nnc(-c4ccncc4)n3)n2)ccn1	-0.6	0.68	11	23	1.7	i	2.4	4%	0
19	CCOC(=O)N1CCN(S(=O)(=O)c2ccc(F)c(C(=O)Nc3ccc(C)c(Cl)c3)c2)CC1	x	0.73	x	x	x	x	1.3	16%	x
20	C[C@@H]1CN([C@@H](C)CO)C(=O)c2cc(NC(=O)C3CCCCC3)ccc2O[C@@H]1CN(C)C(=O)Nc1ccc(F)cc1	-3.8	x	-4	-9	0.4	i	x	x	x
21	CCOC(=O)c1ccc2nc(CCC(=O)N[C@H](C(=O)OC)C(C)C)c(=O)n(CC)c2c1	0.7	0.73	-5	-3	3.4	x	0.3	5%	-4
22	COC(=O)c1sccc1NC(=O)c1ccccc1[N+](=O)[O-]	x	0.73	x	x	x	x	0.7	1%	-4
23	C[C@@H]1CN([C@@H](C)CO)C(=O)c2cc(NC(=O)NC3CCCCC3)ccc2O[C@@H](C)CCCCO[C@H]1CN(C)Cc1ccccc1	4.3	x	0	1	6.3	i	x	x	x
24	CC(C)C(=O)Nc1cccc(NC(=O)c2cccc([N+](=O)[O-])c2)c1	x	0.67	x	x	x	x	0.5	-5%	9
25	C[C@@H](O)C#Cc1ccc([C@@H]2[C@H]3CN(C(=O)c4ccc5c(c4)OCO5)CCCCN3[C@H]2CO)cc1	2.5	x	1	6	-0.2	i	x	x	x
26	O=C(CCCc1c[nH]c2ccccc12)NCc1ccc2c(c1)OCO2	x	0.68	x	x	x	x	0.8	75%	x
27	CCCCN(C(=O)c1ccc([N+](=O)[O-])o1)c1c(N)n(CCCC)c(=O)[nH]c1=O	-0.7	0.71	17	14	3.0	i	-4.0	1%	x
28	CN=c1scc(-c2ccccc2F)n1/N=C/c1ccc(O)c(O)c1O	u	x	-10	-39	3.4	i	-7.6	x	x
29	Cc1ccc(C(=O)CCC(=O)N2CCC(C(N)=O)CC2)s1	-2.0	0.67	5	7	-1.6	i	-0.8	-9%	0
30	CSc1nsc(SC)c1C(=O)NCCNS(=O)(=O)c1ccc(C)cc1	x	0.68	x	x	x	x	-2.5	5%	-17

Four structures already listed, sorted by SMILES length, lowest first.
nr	Compound	AF4-AF9 inh	E coli growth	Ecoli rRNA inh	Ecoli rRNA inh OD600	Ecoli rRNA inh RFP	FGF22 binding	HNF4A DNA FP	Vif A3G	ALR H2O2 inh
26	O=C(CCCc1c[nH]c2ccccc12)NCc1ccc2c(c1)OCO2	x	0.68	x	x	x	x	0.8	75%	x
28	CN=c1scc(-c2ccccc2F)n1/N=C/c1ccc(O)c(O)c1O	u	x	-10	-39	3.4	i	-7.6	x	x
18	c1cc(-c2nnn(CCOCCn3nnc(-c4ccncc4)n3)n2)ccn1	-0.6	0.68	11	23	1.7	i	2.4	4%	0
25	C[C@@H](O)C#Cc1ccc([C@@H]2[C@H]3CN(C(=O)c4ccc5c(c4)OCO5)CCCCN3[C@H]2CO)cc1	2.5	x	1	6	-0.2	i	x	x	x

New compounds follow.
nr	Compound	AF4-AF9 inh	E coli growth	Ecoli rRNA inh	Ecoli rRNA inh OD600	Ecoli rRNA inh RFP	FGF22 binding	HNF4A DNA FP	Vif A3G	ALR H2O2 inh
31	C[C@H](O)[C@@H]1CN2CCc3c([nH]c4ccccc34)[C@@H]2C[C@@H]1N(C)C(=O)Nc1cc(Cl)cc(Cl)c1	2.8	x	-30	-36	6.7	i	-0.8	-3%	x
32	Cc1ccc(C)c(OCCC(=O)NCCc2ccc(S(N)(=O)=O)cc2)c1	1.7	0.68	8	-5	0.2	i	1.0	2%	-12
33	CN(C(=O)c1ccc2c(=O)n3c(nc2c1)CCCCC3)c1ccccc1F	0.1	0.68	3	3	1.9	i	-3.7	7%	-1
34	CCOc1ncccc1C(=O)OCC(=O)c1ccccc1Br	-6.1	0.7	-1	-6	3.8	i	0.7	0%	-9
35	CC(C)CCOc1ccc(C(=O)NNC(=O)CNC(=O)c2ccccc2F)cc1	-1.5	0.67	7	8	4.5	i	2.9	-6%	-8
36	CCOC(=O)N1CCC(NC(=O)CN2C(=O)CSc3nc(C)cc(C)c32)CC1	1.9	0.74	4	-1	2.7	i	-1.6	22%	-70
37	O=C(O)C[C@H]1c2ccccc2S(=O)(=O)N1c1ccccc1	-27	x	8	8	1.1	i	3.2	x	-1
38	O=C(c1ccco1)N1CCN(S(=O)(=O)c2c(Cl)cccc2Cl)CC1	1.3	0.62	-8	0	-6.0	i	2.7	x	10
39	O=C(CC1CCC1)Nc1cccc2c([N+](=O)[O-])cccc12	-0.5	0.62	3	15	0.9	i	0.4	x	-2
40	Cc1ccc(C(=O)NCC(=O)N2CCCCCC2)cc1	2.5	0.7	11	5	-3.1	i	0.1	-5%	-2
41	Cc1ccccc1N(C)S(=O)(=O)c1ccc2[nH]cc(C(=O)NCC3CCCO3)c(=O)c2c1 (centres undefined)	x	0.67	x	x	x	x	3.4	20%	x
42	O=C(COC(=O)Cc1ccc([N+](=O)[O-])cc1)NCc1ccc2c(c1)OCO2	-4.2	0.68	-4	21	-0.8	i	-2.5	-6%	-1
43	CCN(CC)c1ccc(Nc2cc3n(c(=O)n2)CCc2cc(OC)c(OC)cc2-3)cc1	6.2	0.63	-7	-2	-4.0	i	0.3	x	100*
44	CC12COC3(C(N)=O)CC1CCC32C (centres undefined)	-17	0.7	7	15	0.7	i	-4.0	31%	1
45	CC(Sc1nc(N2CCOCC2)nc(N2CCOCC2)n1)C(=O)Nc1ccccc1 (centres undefined)	x	0.68	x	x	x	x	4.0	0%	-3

Going on with the list:
nr	Compound	AF4-AF9 inh	E coli growth	Ecoli rRNA inh	Ecoli rRNA inh OD600	Ecoli rRNA inh RFP	FGF22 binding	HNF4A DNA FP	Vif A3G	ALR H2O2 inh
46	CCOC(=O)c1ccc(N2Cc3ccccc3C2=NC(=O)c2cccs2)cc1	x	0.68	x	x	x	x	2.3	-3%	x
47	Cc1nnc(N(C)C(=O)c2ccc3c(c2)OCO3)s1	-11	0.71	2	-2	-0.1	i	-0.3	12%	-19
48	COc1ccc(N2CCN(C(=O)CSc3nnnn3-c3ccc4c(c3)OCCO4)CC2)cc1	4.1	0.69	-21*	-16*	-0.2*	i	0.6	0%	18
49	COc1cc(/C=C(/C#N)c2nc3ccccc3c(=O)[nH]2)ccc1O	2.0	0.66	-1	-10	21	i	47*	u	-4
50	CCC(c1nc2ccccc2[nH]1)n1c(-c2ccnc(Cl)c2)nc2ccccc21 (centres undefined)	-1.9	x	-21	-15	-5.8	i	0.4	x	x
51	CCN1CCN(Cc2nc3c(c(=O)[nH]c(=O)n3C)n2Cc2ccccc2Cl)CC1	6.9	0.74	7	11	-0.9	i	1.2	x	-2
52	O=C(Nc1ccccc1)Nc1ccc2c(c1)CCC2	0.8	0.67	-15	-3	1.0	i	2.1	x	-2
53	NC(=O)c1ccc(N2CCCC2)nc1	-2.3	0.66	6	14	-1.7	i	-0.9	1%	x
54	C[C@@H]1CN([C@H](C)CO)S(=O)(=O)c2ccc(C3=CCCCC3)cc2O[C@H]1CN(C)C(=O)CC1CC1	1.9	x	-10	-24	-0.5	i	x	x	x
55	CCCCOC(=O)c1nc[nH]c1C(=O)OCCCC	-0.8	0.63	7	13	3.9	i	0.2	-1%	-8
56	O=C(NCC1(c2ccccc2)CCCC1)c1ccc(Br)cc1	x	0.73	x	x	x	x	0.5	-1%	-7
57	CO[C@H]1CN(C)C(=O)c2ccc(NS(=O)(=O)c3cn(C)cn3)cc2OC[C@@H](C)N(CCC(F)(F)F)C[C@H]1C	-11	x	-1	1	0.1	i	x	x	x
58	C[C@H](CO)N1C[C@H](C)[C@H](CN(C)C(=O)c2cnccn2)Oc2cc(C#CC3CC3)ccc2S1(=O)=O	0.7	x	-3	-1	0.1	i	x	x	x
59	CCCCN(C(=O)c1ccc(N2CCCC2=O)cc1)c1c(N)n(Cc2ccccc2)c(=O)[nH]c1=O	4.9	0.72	8	10	-2.0	i	-0.2	1%	-5
60	CC(C)(C)c1cc(C(=O)N/N=C/c2ccncc2)n[nH]1	-3.9	x	2	2	-1.1	i	0.1	x	x
61	CC1CCN(S(=O)(=O)c2cccc(C(=O)N(C)C3CCS(=O)(=O)C3)c2)CC1 (centres undefined)	x	0.72	x	x	x	x	0.5	u	x
62	C[C@@H]1CCCCO[C@@H](CN(C)C(=O)c2ccccc2)[C@@H](C)CN([C@H](C)CO)C(=O)c2cc(NS(=O)(=O)c3ccc(F)cc3)ccc2O1	-0.4	x	-2	-13	-0.5	i	x	x	x
